# Source: PubChem BioAssay (National Center for Advancing Translational Sciences (NCATS))
# D2 potentiator = Beta-Arrestin HTS for Positive Allosteric Modulators of the Human D2 Dopamine Receptor: Potentiators; D(2) dopamine receptor (Homo sapiens), P14416; potentiation, % (test concentration not listed); 360,000 compounds, 0.23% hits; DiscoveRx D2 beta-arrestin cells, luminescence, 90 min; 100% = 57 uM dopamine signal; AID 624464, 2012; active = potentiation of 50% or more; inconclusive = 30% to 50%; inactive = 30% or less;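 also: compound concentration not given in the record; tested on top of an EC20 dose of dopamine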
#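 D2 cells co-treated with compound plus 50 nM dopamine (EC20) for 90 min at 37 deg C to detect potentiation. Beta-arrestin recruitment was read as enzyme-fragment luminescence after 1 h at ambient temperature. Full response was set by 57 uM dopamine.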
# CtBP-E1A blk = qHTS Assay for Inhibitors of the CtBP/E1A Interaction | CtBP / adenovirus E1A interaction (AlphaScreen) | AlphaScreen GST-E1A/His-CtBP binding, 1536-well; active compounds read low; control for the full effect not named in the record | activity change, % (test concentration not listed) | 340,000 compounds, 0.49% hits; in the data active means activity change below about -65%; inconclusive means about -30% to -65%; inactive means above about -30%; also: % is scaled to controls: 0 for no effect and ±100 for the full control effect
#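 Protein mix (5X: 125 nM each GST-E1A, His-CtBP) was incubated with pinned compound 2 h at 37 deg C in dark, in 50 mM Tris pH 8.0 buffer with 300 mM NaCl. Glutathione donor and nickel acceptor beads followed; AlphaScreen signal read after 1 h.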
# Six1-Eya2 blk = qHTS Assay for Inhibitors of the Six1/Eya2 Interaction; 360,000 compounds, 0.56% hits; Homeobox protein SIX1 (Homo sapiens) + Protein phosphatase EYA2 (Homo sapiens), …; AlphaScreen GST-Six1/His-Eya2 binding, biochemical; active compounds read low; control for the full effect not named in the record; activity change, % (concentration not given with the values); in the data active = activity change below about -65%; inconclusive = about -30% to -65%; inactive = above about -30%; also: % is scaled to controls: 0 for no effect and ±100 for the full control effect
# Target sequence (O00167 whole entry, looked up): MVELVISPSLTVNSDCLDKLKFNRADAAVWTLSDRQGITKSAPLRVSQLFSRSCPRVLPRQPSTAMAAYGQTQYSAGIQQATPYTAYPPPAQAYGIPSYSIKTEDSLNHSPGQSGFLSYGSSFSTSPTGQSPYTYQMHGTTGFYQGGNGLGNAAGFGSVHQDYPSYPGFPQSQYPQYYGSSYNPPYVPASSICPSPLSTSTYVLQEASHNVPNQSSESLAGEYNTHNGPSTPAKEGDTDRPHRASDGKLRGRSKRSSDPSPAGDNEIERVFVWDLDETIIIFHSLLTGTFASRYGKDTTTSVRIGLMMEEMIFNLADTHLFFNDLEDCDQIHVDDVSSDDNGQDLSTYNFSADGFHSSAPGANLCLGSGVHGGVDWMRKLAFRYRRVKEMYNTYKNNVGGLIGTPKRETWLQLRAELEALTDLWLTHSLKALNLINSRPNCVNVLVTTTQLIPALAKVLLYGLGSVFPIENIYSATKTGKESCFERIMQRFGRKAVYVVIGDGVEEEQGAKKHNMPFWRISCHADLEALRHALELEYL
# Target sequence (Q15475 whole entry, looked up): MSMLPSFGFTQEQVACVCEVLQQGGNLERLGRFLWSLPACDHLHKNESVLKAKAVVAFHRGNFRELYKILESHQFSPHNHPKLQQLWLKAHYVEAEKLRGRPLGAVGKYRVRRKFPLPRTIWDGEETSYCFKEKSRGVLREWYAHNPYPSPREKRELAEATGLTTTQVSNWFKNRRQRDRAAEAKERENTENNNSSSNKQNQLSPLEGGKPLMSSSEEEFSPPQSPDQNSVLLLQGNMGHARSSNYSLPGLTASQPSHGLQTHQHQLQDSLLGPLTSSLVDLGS
#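 Six1/Eya2 binding was read as AlphaScreen signal after compounds were pinned into GST-Six1 plus His-tagged Eya2 (5X stock 250/500 nM) in pH 8.0 Tris/NaCl/TCEP buffer, beads added, then incubated 1 h, 37 C, dark.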
# PINK1 expr mod = A Quantitative High throughput Screen to Identify Chemical Modulators of PINK1 Expression. 410,000 compounds, 0.2% hits. PINK1 immunofluorescence, high-content cytometry, 24 h. Potency, µM (doses to about 76.6 µM), for inactives: at the highest dose activation (PINK1 increase), hits mostly activators; active = well fitted activation curve with a large enough effect; inconclusive = small, poorly fitted or top-dose-only effect; inactive = flat fitted curve, though single readings scatter; cell line not stated here;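 also: potency is read from the fitted curve at half-maximal effect; % of control where 0% means no effect; nearly all actives have a fitted effect of over 65% in size; a mitochondrial uncoupler was the plate control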
#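 Compound titrations (5 concentrations, 24 h) on a stable cell line; DMSO and CCCP controls. Endpoint: fixed-cell PINK1 immunofluorescence with mitochondrial, cell and nuclear markers, scanned by microplate cytometer.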
# Sfp inh = qHTS Assay for Inhibitors of Bacillus subtilis Sfp phosphopantetheinyl transferase (PPTase) | Biochemical Sfp PPTase activity, qHTS | 4'-phosphopantetheinyl transferase ffp (Bacillus subtilis), Q9F4F7 | 310,000 compounds, 3.5% hits | Potency, µM, without a hit: max response, negative = inhibition, hits mostly inhibitors; active = well fitted inhibition curve with a large enough effect; inconclusive = small, poorly fitted or top-dose-only effect, or another doubt; inactive = no such curve, though single readings can be large or run the other way;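 also: the enzyme is Sfp with the accession as filed and its product quenches rhodamine fluorescence; potency is read from the fitted curve at half-maximal effect; 0% = enzyme reaction without inhibitor and -100% = no enzyme wells; top concentration of the series not given in the record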
#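 Compounds were incubated with enzyme (final 15 nM) for 15 min at room temperature before substrate addition started the reaction. Fluorescence at 525 nm excitation, 598 nm emission was recorded immediately and after 30 minutes.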
# TRPV1 potentiator = HTS Assay for Compounds that Act as Potentiators of the Vanilloid Receptor 1 | TRPV1-expressing cells, Fluo-8 calcium influx, capsaicin EC20 potentiation; host cell line not named in the record; control for the full effect not named in the record | AID 540277, 2011 | Transient receptor potential cation channel subfamily V member 1 (Homo sapiens), Q8NER1 | potentiation, % at 8.33 µM | 320,000 compounds, 0.02% hits; active means potentiation above 80%; inconclusive means 30% to 80%; inactive means below 30%; also: 0% is about no effect
#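 Cells expressing TRPV1 were dye-loaded with Fluo-8 and read kinetically: 10 s baseline, 3 min after compound (agonist portion), then 2 min after EC20 capsaicin (allosteric enhancer portion). Calcium-bound dye fluorescence at 480/520 nm.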
# D2 agonist = Beta-Arrestin HTS for Positive Allosteric Modulators of the Human D2 Dopamine Receptor: Agonists; DiscoveRx PathHunter D2 beta-arrestin, luminescence, 90 min; 100% = 57 uM dopamine signal; D(2) dopamine receptor (Homo sapiens), P14416; activation, % (test concentration not listed); 360,000 compounds, 0.084% hits; AID 624465, 2012; in the data active = activation above about 40%; inconclusive = about 15% to 40%; inactive = below about 15%; also: compound concentration not given in the record; the text of the record calls up to 30% inactive
#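 Agonist mode: compounds alone added to overnight-plated D2 PathHunter cells for 90 min at 37 C, with 57 uM final dopamine (EC100) defining full response. Beta-arrestin recruitment detected by chemiluminescent reagent, read after 1 h at ambient temperature.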
# Active calls of the source: *; ? = inconclusive; / = not tested or not shown; & = joins results of further samples; ! = a repeat was not active; [ ] = remark or other dose. The order is random (roughly 3.7% active in at least one column).
SMILES,D2 potentiator,CtBP-E1A blk,Six1-Eya2 blk,PINK1 expr mod,Sfp inh,TRPV1 potentiator,D2 agonist
COc1cc(OC)cc(C(=O)N/N=C2/SCC(=O)N2Cc2ccco2)c1,-9,3,4,-0.9%,6%,1,-2.7
CC(=O)Nc1ccc(S(=O)(=O)N[C@H](C(=O)O)C(C)C)cc1,-19,-1,-5,5.1%,16%,-15,-1.0
COC(=O)c1sc(-c2ccccc2)cc1NC(=O)c1cc(OC)cc(OC)c1,-8,-5,1,11%,-4%,3,0.6
Fc1cccc(/C=N/Nc2nncc3ccccc23)c1,-12,/,-18,0.5%,-9%,-4,-1.4
COc1ccc(S(=O)(=O)N2CCCC2CNC(=O)C(=O)NC2CCCCCC2)cc1 (stereo not drawn),19,0,-1,0.9%,/,28,4.3
COc1cc(CNCCc2c[nH]c3ccccc23)cc(Cl)c1OCC(N)=O,-12,15,3,-1.3%,-6%,-6,-3.0
c1ccc(CN2CCN(c3nc4ccccc4s3)CC2)cc1,-17,0,5,2.6%,3%,-15,-0.2
CCCc1nnc(NC(=O)CC(=O)Nc2ccccc2C(=O)O)s1,2,-9,8,0.3%,-6%,7,1.1
CCN(CC)S(=O)(=O)c1ccc(C(=O)N(c2ccc(C)cc2)C2C=CS(=O)(=O)C2)cc1 (stereo not drawn),13,0,16,1.4%,6%,-14,-2.9
O=C(CCS(=O)(=O)c1ccccc1Cl)NCc1ccc(F)cc1,-14,/,3,1.8%,-3%,-11,-5.2
COc1ccc(OCC(=O)Nc2cc3c(cc2C(=O)O)OCCCO3)cc1,-8,-2,1,0.7%,?,19,3.8
Cc1ccc(SCc2cc(=O)c3c(=O)n(-c4ccccc4)[nH]c3[nH]2)cc1,0,-13,-16,-0.6%,71µM*,11,-4.0
Nc1ccc(-c2nc3ccccc3s2)cn1,-10,0,0,-1.4%,0%,-6,-2.7
COc1cccc(S(=O)(=O)NCc2ccc(C(=O)Nc3cccc(Cl)c3)cc2)c1,-9,-4,-7,15%,23%,11,2.5
CN(C)S(=O)(=O)c1cccc(N=C2NN=C(c3ccccc3)CS2)c1,6,1,?,32µM*,10%,0,-6.6
Cc1ccc(C)c(NC(=O)CN(C)C(=O)C2CCN(C(=O)Nc3ccccc3)CC2)c1,-69,3,0,-2.0%,/,-5,-6.3
CCOC(=O)[C@]12CCCC=C1N(Cc1ccco1)C(=O)[C@H](CC(=O)NCCc1ccccc1OC)C2,/,-15,-9,2.1%,/,/,/
O=C(Nc1ccc(Cl)cc1Cl)N1CCN(c2ncccn2)CC1,3,/,-2,1.7%,4%,-4,-2.7
COc1ccc2c(c1)CCc1c(C(=O)NC3CCCCC3)noc1-2,-1,1,0,0.0%[38.3 µM],1%,11,-0.4
Cc1csc(NC(=O)CSc2ccc(-c3ccccn3)nn2)n1,-13,/,-86*,0.5%,14%,-5,-4.7
CCn1cc(/C=N/NC(=O)COc2cccc3cccnc23)c2ccccc21,-12,-6,1,2.3%,-29%,2,-0.5
O=C1Nc2cc(C(=O)N3CCC(N4CCCCC4)CC3)ccc2S/C1=C\c1ccccc1,-12,/,-7,-0.8%,-28%,3,-3.3
S=C(Nc1ccc(Cl)cc1)N1CCN(Cc2ccccc2)CC1,-20,-10,-7,1.2%,18%,-7,-0.7
COc1cccc(-c2nc3n(n2)CCc2ccccc2-3)c1,-12,0,21,1.3%,/,/,-4.0
CCOC(=O)c1c(O)cc(C)[nH]c1=O,-5,5,7,2.3%,20%&0%,-5&20,-3.4

# 6 compounds drawn at random from the list so far:
SMILES,D2 potentiator,CtBP-E1A blk,Six1-Eya2 blk,PINK1 expr mod,Sfp inh,TRPV1 potentiator,D2 agonist
COc1cccc(-c2nc3n(n2)CCc2ccccc2-3)c1,-12,0,21,1.3%,/,/,-4.0
O=C1Nc2cc(C(=O)N3CCC(N4CCCCC4)CC3)ccc2S/C1=C\c1ccccc1,-12,/,-7,-0.8%,-28%,3,-3.3
O=C(CCS(=O)(=O)c1ccccc1Cl)NCc1ccc(F)cc1,-14,/,3,1.8%,-3%,-11,-5.2
CN(C)S(=O)(=O)c1cccc(N=C2NN=C(c3ccccc3)CS2)c1,6,1,?,32µM*,10%,0,-6.6
O=C(Nc1ccc(Cl)cc1Cl)N1CCN(c2ncccn2)CC1,3,/,-2,1.7%,4%,-4,-2.7
S=C(Nc1ccc(Cl)cc1)N1CCN(Cc2ccccc2)CC1,-20,-10,-7,1.2%,18%,-7,-0.7

# The main list resumes, repeating the two entries before the break.
SMILES,D2 potentiator,CtBP-E1A blk,Six1-Eya2 blk,PINK1 expr mod,Sfp inh,TRPV1 potentiator,D2 agonist
COc1cccc(-c2nc3n(n2)CCc2ccccc2-3)c1,-12,0,21,1.3%,/,/,-4.0
CCOC(=O)c1c(O)cc(C)[nH]c1=O,-5,5,7,2.3%,20%&0%,-5&20,-3.4
CC1(C)S[C@@H]2[C@H](NC(=O)[C@H](N)c3ccc(O)cc3)C(=O)N2[C@H]1C(=O)O,-8,-8,2,-1.1%,3%,2,-1.0
CCC(=O)Nc1nc(-c2ccccc2)ns1,-7,0,15,/,5%,-8,-1.7
Cc1ccccc1N=Nc1c(C)[nH]n(C(N)=S)c1=O,-26,0,-18,-3.3%,-10%,3,-11
CC(C)(C)c1ccc(C(=O)NCc2nnc(SCC(=O)NC3CCCCC3)o2)cc1,0,3,-1,1.5%,0%,10,-0.6
CCCCN(C(=O)c1ccc(N(C)S(=O)(=O)c2ccc(C)cc2)cc1)c1c(N)n(CCCC)c(=O)[nH]c1=O,-1,7,9,0.0%,/,0,-4.3
COC(=O)c1sc(NC(=O)c2csc3c2CCCC3)nc1C,3,-4,-8,10µM*,-10%,2,1.0
O=C(c1ccc(F)cc1F)N1CCCN(c2nc(-c3ccccc3)ns2)CC1,1,/,-4,3.1%,18%,4,-9.9
O=C(Nc1cccc(S(=O)(=O)NC2=NCCC2)c1)c1ccc(=O)[nH]c1,-4,-22,-4,-0.9%,/,-16,-3.9
COc1ccc(C(=O)N[C@H](C(=O)OCc2cc(=O)oc3cc(C)ccc23)C(C)C)cc1,-7,12,2,0.2%,0%,0,-1.9
O=C(O)CN1CCN(Cc2ccccc2)C1=O,8,8,4,2.6%[38.3 µM],21%,13,-0.3
COc1cc2ccc(=O)oc2c(O)c1O,4,-8,-7,-0.9%,40µM*!,/,1.4
Cc1ccc(/C=C/C(=O)NCCCc2ccccc2)cc1,-20,18,-1,2.3%,-22%,11,-5.1
N=C1c2ccccc2CN1c1ccc(N2CCOCC2)c(S(=O)(=O)Nc2ccc(Cl)cc2)c1,/,/,/,/,10µM*,13,-8.9
CCOc1ccccc1OCCCC(=O)NNC(=O)c1nn(C)c(=O)c2ccccc12,-16,-3,-2,-1.0%,/,9,-4.1
CCOC(=O)C(NC(=O)CC(C)C)(Nc1cc(C)on1)C(F)(F)F (stereo not drawn),-13,-9,-4,28%[38.3 µM],17%,3,-2.8
CCc1nnc(NS(=O)(=O)c2ccc(NC(=O)/C=C/c3ccc(OC)cc3OC)cc2)s1,-10,?,?,0.9%,6%,9,-4.6
COc1cc(OC)cc(C(=O)Nc2cccc(-c3ccc(N4CCOCC4)nn3)c2)c1,-5,-2,7,2.1%,/,-19,-1.2
CC(C)c1nc2sc3c(c2c(=O)n1N)CC(C)(C)OC3,3,0,11,-0.3%,25%,0,-2.7
COc1ccc(C(=O)N2CCN(S(=O)(=O)c3ccc4c(c3)OCCO4)CC2)cc1OC,-4,26,12,-0.5%,/,4,-1.4
O=C(NN1C(=O)c2ccccc2NC1c1ccccn1)c1ccc(Br)cc1 (stereo not drawn),-6,-6,-2,-2.5%,14%,12,-2.5
Cc1cccc(-n2c(Cc3ccccc3)nnc2SCc2ccc([N+](=O)[O-])cc2)c1,-23,-2,-19,7.6%,2%,1,-3.9
COc1ccccc1C(=O)NC(=O)CSc1ccc(C)c(C)c1,-22,13,9,-0.8%,/,/,0.8
O=C1Nc2ccccc2O/C1=C\c1c(F)cccc1Cl,-3,/,4,6.0%,9%,23,2.5
O=C1CN(C(=O)COC(=O)C2CCN(S(=O)(=O)c3ccccc3C(F)(F)F)CC2)c2ccccc2N1,-4,-8,-2,-0.5%,22%,24,1.6
COc1cc(OC)cc(N2CC(C)(C)C2=O)c1,-3,/,-2,0.7%,14%,-11,-0.2
# (cont.)
SMILES,D2 potentiator,CtBP-E1A blk,Six1-Eya2 blk,PINK1 expr mod,Sfp inh,TRPV1 potentiator,D2 agonist
COC(=O)c1cc(S(=O)(=O)N2CCN(c3cccc(OC)c3)CC2)cn1C,-4,5,-8,5.1%,15%,3,3.6
CCOc1ccc(NC(=O)COC(=O)c2ccc3c(c2)OCO3)cc1,-2,/,0,0.4%,/,-3,-5.8
COc1cc(/C=C/C(=O)OCC(=O)NNC(=O)c2cc(Cl)ccc2OC)ccc1O,-6,-8,-9,3.1%,/,/,-3.0
CC1CCc2c(sc3ncnc(SCC(=O)N(C)C4CCS(=O)(=O)C4)c23)C1 (stereo not drawn),-5,/,-3,0.0%,/,/,-0.8
Cc1ccccc1OCc1nnc(SCC(=O)O)n1Cc1ccccc1,7,10,-7,0.1%,20%,11,-5.3
Cn1c(=O)c2c(SCC(N)=O)nc(CC(C)(C)C)nc2n(C)c1=O,-7,1,0,-0.8%,11%,-4,-2.4
Cc1cnc(C(=O)OCC(=O)N2CCc3ccccc3C2)cn1,-5,4,0,1.2%,15%,-9,-3.5
Nc1cc(=O)[nH]c(=S)n1-c1ccccc1,-3,-6,8,0.0%,?,3,2.1
